High-throughput results deposited in PubChem by National Center for Advancing Translational Sciences (NCATS).
Methyltransferases: Primary Screen for Target Class Profiling of Small Molecule Inhibitors of Methyltransferases | 25,000 tested, 3.9% active | purified enzyme, MTase-Glo SAH luminescence; hits give low values | calls only at 40 µM; active = -50% or lower on at least one of six enzymes; inconclusive = the cases between; inactive = as a rule above -30% on all six;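 note: enzymes were COMT GAMT GNMT HNMT NNMT and PNMT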
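Each enzyme was assayed with SAM and its substrate. SAH formation detected by MTase-Glo luminescence; single-point 40 uM screen[…].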
Calls only; i = inactive; ? = inconclusive; + = active, no number. % is set by controls: 0 for no effect and ±100 for the full control effect.

SMILES	Methyltransferases
COc1cc(/C=C/C(=O)OC2CC(C)=C(C(=O)O)/C2=C/CO[C@@H]2O[C@H](CO)[C@@H](O)[C@H](O)[C@H]2O)ccc1O (some centres undefined)	i
C[C@@H](O)[C@H](N)C(=O)N1CCC[C@H]1C(=O)N1CCC[C@H]1C(=O)N[C@H](C(N)=O)[C@@H](C)O	i
O=C(O)CC1(O)C(=O)Nc2ccccc21 (centres undefined)	+
CSCC(=O)N[C@H]1CCN2C(=O)c3cc(-c4ccc(Cl)cc4)ccc3NC(=O)[C@H]12	?
C=CC(=O)Nc1ccc(CN2C(=O)N(c3cc(OC)cc(OC)c3)Cc3cnc(Nc4ccc(N5CCN(C)CC5)cc4)nc32)cc1	+
CC(C)CNC(=O)c1ccc2c(=O)n(CC(C)C)c3nn(CC(N)=O)c(=O)n3c2c1	i
Cc1cccc(CC(=O)N[C@@H]2CN(c3ccncn3)C[C@H]2CO)c1	i
COc1ccc(N2C(=O)c3cc4sccc4n3CC2(C)C(=O)NC2CCCCCC2)cc1Cl (centres undefined)	i
COc1ccc2c(Oc3ccc(NC(=O)c4c(C)n(CC(C)(C)O)n(-c5ccccc5)c4=O)nc3)ccnc2c1	?
N#Cc1cccc(C#N)c1-c1nc2c3ccccc3c3cc(Cl)ccc3c2[nH]1	?
CC(C)(C)NC(=O)N1CCC(c2nnc3n2C(C(=O)NCC2CCCCC2)CC3)CC1 (centres undefined)	i
O=C(c1ccccc1)N1CC2(CCCN2CC2CC2)Cc2ccccc21 (centres undefined)	i
CC(C)NC(=O)c1ccc2c(=O)n(Cc3ccccc3)c3nn(Cc4ccc(F)cc4)c(=O)n3c2c1	i
NC(=O)C1CCN(c2nc3c(S(=O)(=O)c4ccc(Br)cc4)nnn3c3ccccc23)CC1	i
CCCNC(=O)N1CCn2cccc2C1CCC (centres undefined)	i
O=C(CCc1nnc2n(CCc3ccccc3)c(=O)c3ccccc3n12)NCCCN1CCCC1=O	i
Cc1ccc(-c2nc(-c3cc4cccc(OCc5cccc(C)c5)c4oc3=O)no2)cc1	?
CN(C)CCNC(=O)c1cc2n(n1)CC(C)(C(=O)NCc1ccccc1)N(C)C2=O (centres undefined)	i
Nc1ncc(C(=O)N2CCC3(CC2)[C@H](O)C[C@@H]3O)c(C(F)(F)F)n1	i
CCOc1ccccc1NC(=O)N1Cc2c(sc3c2CCN(C)C3)-n2cccc2C1CC (centres undefined)	i
CC1OC(OC2C(O)C(OC3CCC4(C)C(CCC5(C)C4CC=C4C6CC(C)(COC7OC(CO)C(O)C(O)C7O)CC(O)C6(C)CCC45C)C3(C)C)OC(C(=O)O)C2O)C(O)C(O)C1OC1OCC(O)C(O)C1O (centres undefined)	?
CC(C(=O)NCc1ccco1)n1ccc2cc(S(=O)(=O)N3CCCC3)ccc21 (centres undefined)	i
CC(C)[C@@H]1Nc2ccc(C(=O)O)cc2[C@@H]2C=CC[C@@H]21	i
O=C(NCCCc1ccccc1F)[C@H]1CCC[C@@H](O)C1	i
O=C(CCNC(=O)c1cnccn1)NC1CCCc2c1[nH]c1ccc(Cl)cc21 (centres undefined)	i

By substructure: those above with fluorine
SMILES	Methyltransferases
CC(C)NC(=O)c1ccc2c(=O)n(Cc3ccccc3)c3nn(Cc4ccc(F)cc4)c(=O)n3c2c1	i
Nc1ncc(C(=O)N2CCC3(CC2)[C@H](O)C[C@@H]3O)c(C(F)(F)F)n1	i
O=C(NCCCc1ccccc1F)[C@H]1CCC[C@@H](O)C1	i

The list goes on:
SMILES	Methyltransferases
C/C=C1/[C@H](O[C@@H]2O[C@H](CO)[C@@H](O)[C@H](O)[C@H]2O)OC=C(C(=O)OC)[C@H]1CC(=O)OCCc1ccc(OC(=O)C[C@@H]2C(C(=O)OC)=CO[C@@H](O[C@@H]3O[C@H](CO)[C@@H](O)[C@H](O)[C@H]3O)/C2=C/C)cc1	i
CCOC(=O)c1ccc(NC(=O)N2CCn3c(C)ccc3C2CC)cc1 (centres undefined)	i
CC1CCN(S(=O)(=O)c2ccc3c(ccn3CC(=O)NCCc3ccccc3Cl)c2)CC1	i
CSC(=O)OCC1=C[C@@H]2OC(=O)C3=CO[C@@H](O[C@@H]4O[C@H](CO)[C@@H](O)[C@H](O)[C@H]4O)[C@H]1[C@@H]32	+
COC(=O)C1=CO[C@@H](O[C@@H]2O[C@H](CO)[C@@H](O)[C@H](O)[C@H]2O)[C@@H]2[C@@H](C)[C@@H](OC(=O)/C=C/c3ccccc3)[C@@H](O)[C@H]12	i
CCN(CC)C(=O)N1CCC(c2noc(-c3ccccc3)n2)C1 (centres undefined)	i
Cc1ccccc1C(=O)Nc1ccc2c(c1)C(=O)N(C)C1=NCCN12	i
COc1ccc(F)cc1-c1ccc(CN2CCC(N[S+](=O)([O-])c3cccs3)C2)cc1 (centres undefined)	i
Cc1ccc([S+](=O)([O-])NCCNC(=O)c2ccc(-c3cccc(C(F)(F)F)c3)cc2)cc1	i
Nc1ncnc2c1nc(N)n2[C@@H]1O[C@H](CO)[C@@H](O)[C@H]1O	i
CC(C)OCCCn1c(=O)c2ccccc2n2c(SCC(=O)Nc3ccccc3F)nnc12	i
CC1(C(=O)NC2CCCCC2)Cn2c(cc3ccccc32)C(=O)N1Cc1ccccc1F (centres undefined)	i
CNC(=O)[C@@H](c1ccccc1)N1CCc2cc(OC)c(OC)cc2[C@@H]1CCc1ccc(C(F)(F)F)cc1	i
CC1CCCCC1NC(=O)C1(C)Cn2c(ccc2-c2ccco2)C(=O)N1Cc1ccccn1 (centres undefined)	i
CCCn1c(=O)c2ccc(Cl)cc2n2c(=O)n(CC(=O)Nc3cccc(F)c3)nc12	i
CC(C)C1c2cccn2CCN1C(=O)Nc1ccc(F)cc1F (centres undefined)	i
O=C1Nc2ccc(I)cc2/C1=C/c1cc(Br)c(O)c(Br)c1	+
CC(C)(C)c1ccc(S(=O)(=O)/C=C/C#N)cc1	+
COC(=O)c1cc2n(n1)CC(C)(C(=O)NC1CCCCC1)N(CCc1cccs1)C2=O (centres undefined)	i
CS(=O)(=O)c1ccc(OCC2(CNCc3cccc(C(F)(F)F)c3)C[C@@H](O)[C@@H](O)C2)cc1 (some centres undefined)	i
CCn1nc(C)c(CNC(=O)c2cc(COc3ccc4ncccc4c3)on2)c1C	i
Cn1c(C(=O)Nc2ccc3c(c2)OCO3)cc2c1CCN(Cc1cccc(F)c1)C2	i
Cc1ccc(-c2cc(-c3ccncc3)c3cncn3c2)cn1	?
Cc1ccc(Cn2c(=O)c3ccccc3n3c(SCC(=O)Nc4ccccc4F)nnc23)cc1	i
CC(C)Cn1c(=O)c2ccc(C(=O)NC(C)C)cc2n2c(SCC(N)=O)nnc12	i

Going on with the list:
SMILES	Methyltransferases
Cc1ccc2c(c1)c(-n1cccc1)c1n2CC(C)(C(=O)NC2CCC(C)CC2)N(Cc2ccco2)C1=O (centres undefined)	i
CCN(CC)CCNC(=O)c1cc2n(n1)CC(C)(C(=O)NCc1ccc(F)cc1)N(C)C2=O (centres undefined)	i
Cn1c(=O)c2ccc(C(=O)NC3CCCC3)cc2n2c(SCC(=O)Nc3ccc(F)cc3)nnc12	i
CCc1ccc(NC(=O)Cn2nc3n(CC(C)C)c(=O)c4ccccc4n3c2=O)cc1	i
COc1ccccc1CN1C(=O)c2c(NC(C)=O)c3ccccc3n2CC1(C)C(=O)NCCC(C)C (centres undefined)	i
CC(C)CCn1c(=O)c2ccc(C(=O)NC(C)C)cc2n2c(=O)n(CC(=O)c3cccc(Cl)c3)nc12	i
CCc1cccc(NC(=O)Cn2nc3nc(Nc4ccc(C)cc4)ccn3c2=O)c1	i
CC1CCC(N2C(=O)c3cc4sccc4n3CC2(C)C(=O)NC2CCCCC2)CC1 (centres undefined)	i
CCOC(=O)c1ccccc1NC(=O)N1CCn2c(C)ccc2C1CC (centres undefined)	i
COCCN1C(=O)c2cc(-c3ccc(OC)cc3)nn2CC1(C)C(=O)NCc1ccccc1 (centres undefined)	i
Cn1c(=O)c2ccc(C(=O)NC3CCCC3)cc2n2c(SCc3cccc(Cl)c3)nnc12	i
CC(C)CNC(=O)c1ccc2c(=O)nc3c(-c4cccc(F)c4)n[nH]n3c2c1	i
COc1ccccc1NC(=O)CSc1nnc2n(Cc3ccc(C)cc3)c(=O)c3ccccc3n12	i
Cc1ccccc1CN1CCOc2cc([S+](=O)([O-])Nc3cccnc3)ccc2C1	i
CC(=O)OC1(C)CC(O)C2(O)C=COC(OC3OC(CO)C(O)C(O)C3O)C12 (centres undefined)	i
N#Cc1cccc(S(=O)(=O)N[C@@H]2CCOC[C@H]2OCc2cscn2)c1	i
CCC(=O)N1CCc2sc(C(=O)NCc3ccc4c(c3)OCO4)cc2C1	i
NC(=O)C1(c2nc(C3CCOC3)nn2-c2cccc3cccnc23)CC1 (centres undefined)	i
CCCn1c(=O)c2cc(Cl)ccc2n2c(SCC(=O)NCc3ccc(C)cc3)nnc12	i
C=C1CCC2C(C)(C(=O)O)CCCC2(C)C1CCC(C)CC(=O)O (centres undefined)	i
C=CC(=O)Nc1cccc(Nc2nc(Nc3ccccc3)ncc2C)c1	?
CC(C)c1nnc(C2CN(C(=O)Cc3ccccc3Cl)CC23CCOCC3)o1 (centres undefined)	i
CCNC(=O)c1c(C)oc2c1CN(Cc1ccc(Br)o1)CC2	i
OC[C@H]1CCN(c2ccnc3c(C(F)(F)F)cccc23)C[C@H]1O	i
CCCN1C(=O)c2c(C(=O)Nc3cccc(Cl)c3C)ncn2CC1(C)C(=O)NCc1ccc(C)cc1 (centres undefined)	i

Another view of part of the listing above.
SMILES,Methyltransferases
Cc1ccccc1CN1CCOc2cc([S+](=O)([O-])Nc3cccnc3)ccc2C1,i
CC(=O)OC1(C)CC(O)C2(O)C=COC(OC3OC(CO)C(O)C(O)C3O)C12 (centres undefined),i
N#Cc1cccc(S(=O)(=O)N[C@@H]2CCOC[C@H]2OCc2cscn2)c1,i

Quoted at random: six records from the list, in no set order.
SMILES	Methyltransferases
Cc1ccccc1C(=O)Nc1ccc2c(c1)C(=O)N(C)C1=NCCN12	i
CC(C)CNC(=O)c1ccc2c(=O)nc3c(-c4cccc(F)c4)n[nH]n3c2c1	i
CC(C)[C@@H]1Nc2ccc(C(=O)O)cc2[C@@H]2C=CC[C@@H]21	i
CCOC(=O)c1ccc(NC(=O)N2CCn3c(C)ccc3C2CC)cc1 (centres undefined)	i
CCC(=O)N1CCc2sc(C(=O)NCc3ccc4c(c3)OCO4)cc2C1	i
COC(=O)c1cc2n(n1)CC(C)(C(=O)NC1CCCCC1)N(CCc1cccs1)C2=O (centres undefined)	i

(listing goes on)
SMILES	Methyltransferases
CCCn1c(=O)c2[nH]c(C3CCCC3)nc2n(CCC)c1=O	i
C/C(=N\N=C(N)N)c1ccc(NC(=O)Nc2ccc(/C(C)=N/N=C(N)N)cc2)cc1	?
O=C(CC1CCN(C(=O)C2CCCCC2)C1)NCc1ccccc1 (centres undefined)	i
CCCC1(CCC)CCC2(CCN(CCCN(CC)CC)C2)CC1	+
O=C(NC1CCCCC1)N1C2CCC1CN(c1ccc(C(F)(F)F)cc1)C2	i
c1ccc(-c2cnn3cc(-c4ccc(OCCN5CCOCC5)cc4)cnc23)cc1	i
CC(C)n1nc(-c2cc3cc(O)ccc3[nH]2)c2c(N)ncnc21	?
O=C1OC(=O)C2C3CCC(O3)C12 (centres undefined)	i
CCc1cc2c(cc3n2CC(C)(C(=O)NC2CCCCCC2)N(c2ccc(C)c(C)c2)C3=O)s1 (centres undefined)	i
O=C(CCn1ccn2nc3c(c2c1=O)CCCC3)Nc1ccc(F)cc1F	i
CCCCN1C(=O)c2cc(C(=O)N3CCN(c4ccc(OC)cc4)CC3)nn2CC1(C)C(=O)NC1CCCC1 (centres undefined)	i
CC(C)CNC(=O)c1ccc2c(=O)n(C(C)C)c3nn(Cc4cccc(F)c4)c(=O)n3c2c1	i
CC(C)n1c(=O)c2ccc(C(=O)NC3CCCCC3)cc2n2c(=O)n(CC(=O)NC3CCCCC3)nc12	i
Cc1noc(C)c1-c1ccc2c(n1)CN(Cc1nc3ccccc3s1)C(=O)CO2	i
O=C(CCc1nnc2n(Cc3ccc(Cl)cc3)c(=O)c3ccccc3n12)N1CCN(c2ccc(F)cc2)CC1	i
O=S(=O)(NCc1ccccn1)c1ccc(Br)c2ccccc12	i
CCc1ccc(NC(=O)Cn2nc3nc(Nc4ccc(C)cc4)ccn3c2=O)cc1	i
COc1ccc2cc3n(c2c1)CC(C)(C(=O)NC1CCCCC1)N(c1ccccc1OC)C3=O (centres undefined)	i
CCOC(=O)C1CCCN(C(=O)C2CC(c3ccc(CC)cc3)CN(C(C)=O)C2)C1 (centres undefined)	i
CN(Cc1cnn(-c2ccccc2)c1)Cc1cc2ccccc2[nH]c1=O	i
CC(=O)O[C@@H]1[C@@H](O)[C@H](C)O[C@@H](O[C@H]2[C@@H]3C=CO[C@@H](O[C@@H]4O[C@H](CO)[C@@H](O)[C@H](O)[C@H]4OC(C)=O)[C@@H]3[C@@]3(CO)O[C@@H]23)[C@@H]1OC(=O)/C=C/c1ccc(O)cc1	i
C=CCC1(C(=O)O)CCCN(C(=O)Cc2c[nH]c(=O)n(C)c2=O)C1 (centres undefined)	i
O=C1NC2(Cc3ccccc31)CN(C(=O)c1ccccc1Cl)C2	i
CCOC(=O)c1cc2n(n1)CC(C)(C(=O)NC1CCCCCC1)N(c1ccc(F)cc1F)C2=O (centres undefined)	i
CCCSCCCN1C(=O)c2nc3ccccc3n2CC1(C)C(=O)NC1CCCCCC1 (centres undefined)	i
CCOC(=O)c1cc2n(n1)CC(C)(C(=O)NCc1ccccc1)N(Cc1ccc(C)cc1)C2=O (centres undefined)	i

The list is partial. The share of hits here may be higher or lower than overall.
